# Vaccinia stage: blocks a specific stage of Vaccinia orthopoxvirus infection | activity change (mCherry), % (no concentration beside the values) | Vaccinia-infected cells, mCherry/Venus stage reporter fluorescence; active compounds read low; some inactives read as strong as hits | 0.01% of 89,000 active;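 active means mCherry past -33% and 40 or more points under the early reporter, replicates agreeing; inconclusive means past -33% without that gap or agreement; tested in A549 cells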;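 further: scaled between vehicle wells and reference inhibitor wells; 23 nL library stock went into each well; one replicate is shown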
# Vaccinia stage Venus: recorded beside Vaccinia stage, whose call it bears; activity change (Venus), %; measured here: Venus reporter, other viral stage;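 negative = less Venus signal; first of two replicates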
# Numbers without * were called inactive; ? = inconclusive; . = not tested or not shown. An excerpt; count on the stated rates, not on these rows.
SMILES,Vaccinia stage,Vaccinia stage Venus
O=C(NC1CCCC1)[C@H]1[C@H](CO)[C@H]2Cn3c(ccc(C4=CCCCC4)c3=O)[C@@H]1N2CC1CC1,1,3
CC(C)NC(=O)Nc1ccc2c(c1)C(=O)N([C@H](C)CO)C[C@@H](C)[C@@H](CN(C)Cc1ccc(C(=O)O)cc1)OCCCC[C@H](C)O2,41,18
CC(C)(C)c1ccc(N2C(=O)CS(=O)(=O)C2c2ccccc2)cc1 (stereo not drawn),11,17
CCNC(=O)C[C@@H]1CC[C@H]2[C@H](COc3ccc(NS(=O)(=O)c4ccccc4C)cc3C(=O)N2C)O1,16,11
O=C(Nc1cc(F)ccc1F)N1C[C@@H]2[C@H](c3ccccc31)[C@@H](CO)N2C(=O)c1ccccc1,-2,6
Cc1ccc(S(=O)(=O)Nc2cccc3c2O[C@@H](CN(C)C(=O)NC2CCCCC2)[C@@H](C)CN([C@H](C)CO)C3=O)cc1,?,.
C[C@H]1CCCCO[C@H](CN(C)S(=O)(=O)c2cccs2)[C@@H](C)CN([C@@H](C)CO)C(=O)c2cc(NC(=O)CCC(F)(F)F)ccc2O1,-22,-16
Cc1ccc(S(=O)(=O)N[C@H]2C=C[C@@H](CC(=O)NCCN3CCCCC3)O[C@@H]2CO)cc1,0,-4
CCCNC(=O)[C@H]1[C@H](CO)[C@H]2Cn3c(ccc(-c4cccc(OC)c4)c3=O)[C@@H]1N2C(=O)NCCC,13,-3
COc1ccc(S(=O)(=O)Nc2ccc3c(c2)CC(=O)N([C@H](C)CO)C[C@H](C)[C@@H](CN(C)S(=O)(=O)c2cccs2)O3)cc1,-12,-13
COc1ccccc1-c1ccc2n(c1=O)C[C@H]1[C@H](CO)[C@@H](C(=O)NC3CCC3)N(C(=O)NC(C)C)[C@@H]21,10,3
Cc1ccc(S(=O)(=O)N(C)C[C@H]2Oc3ccc(NC(=O)Nc4ccccc4)cc3C(=O)N([C@@H](C)CO)C[C@@H]2C)cc1,-4,-6

# 3 of these compounds in a different format.
structure | Vaccinia stage | Vaccinia stage Venus
COc1ccc(S(=O)(=O)Nc2ccc3c(c2)CC(=O)N([C@H](C)CO)C[C@H](C)[C@@H](CN(C)S(=O)(=O)c2cccs2)O3)cc1 | -12 | -13
COc1ccccc1-c1ccc2n(c1=O)C[C@H]1[C@H](CO)[C@@H](C(=O)NC3CCC3)N(C(=O)NC(C)C)[C@@H]21 | 10 | 3
Cc1ccc(S(=O)(=O)N(C)C[C@H]2Oc3ccc(NC(=O)Nc4ccccc4)cc3C(=O)N([C@@H](C)CO)C[C@@H]2C)cc1 | -4 | -6

# More structures:
SMILES,Vaccinia stage,Vaccinia stage Venus
COc1ccccc1-c1cnc2c(c1)C(=O)N([C@H](C)CO)C[C@H](C)[C@@H](CN(C)Cc1ccc(F)cc1)O2,?,.
C[C@@H]1CCCCO[C@H](CN(C)S(=O)(=O)c2ccccc2)[C@H](C)CN([C@@H](C)CO)C(=O)c2cc(NS(=O)(=O)c3ccccc3)ccc2O1,?,.
C[C@@H]1CN([C@@H](C)CO)S(=O)(=O)c2ccc(C#Cc3ccc(F)cc3)cc2O[C@H]1CN(C)C(=O)NC1CCCC1,?,.
CO[C@H](C(=O)N(C)C[C@H]1OCc2ccccc2-c2c(n(C)c3ccccc23)C(=O)N([C@@H](C)CO)C[C@H]1C)c1ccccc1,-35,-26
O=C(C[C@H]1C=C[C@H](NC(=O)C2CCOCC2)[C@H](CO)O1)NCC1CCCCC1,6,6
C[C@@H]1CCCCO[C@@H](CN(C)S(=O)(=O)c2ccc(F)cc2)[C@H](C)CN([C@H](C)CO)C(=O)c2cc(NC(=O)Nc3ccc4c(c3)OCO4)ccc2O1,-17,-16
O=C(C[C@H]1CC[C@H]2[C@@H](COC[C@@H](O)CN2C(=O)c2ccncc2)O1)Nc1ccc(-c2ccccc2)cc1,-11,5
O=C(C[C@H]1C[C@@H]2c3cc(NC(=O)NC4CCCCC4)ccc3O[C@@H]2[C@@H](CO)O1)NCc1ccccn1,3,1
C[C@@H]1CN([C@H](C)CO)C(=O)c2cccc(NC(=O)C3CCCCC3)c2O[C@@H]1CN(C)S(=O)(=O)c1ccccc1,-15,-12
C[C@@H]1CN([C@H](C)CO)C(=O)Cc2cc(NS(=O)(=O)c3cccs3)ccc2O[C@@H]1CN(C)Cc1ccc(-c2ccccc2)cc1,?,.
Cc1noc(C)c1S(=O)(=O)Nc1ccc2c(c1)CC(=O)N([C@@H](C)CO)C[C@H](C)[C@@H](CN(C)Cc1ccc(Cl)c(Cl)c1)O2,-28,-23
CC(C)NC(=O)Nc1ccc2c(c1)C(=O)N([C@H](C)CO)C[C@@H](C)[C@@H](CN(C)S(C)(=O)=O)O2,7,3
CCNC(=O)C[C@H]1CC[C@@H]2[C@@H](COc3ccc(NC(=O)C4CCCCC4)cc3C(=O)N2C)O1,5,5
CCCC#Cc1ccc2c(c1)O[C@@H](CN(C)CCC)[C@@H](C)CN([C@@H](C)CO)S2(=O)=O,-24,-12
O=C(O)C[C@@H]1C=C[C@@H](NC(=O)Nc2cc(F)ccc2F)[C@@H](CO)O1,13,15
C[C@H](CO)N1C[C@H](C)[C@@H](CN(C)Cc2ccc(C(F)(F)F)cc2)Oc2ccc(NC(=O)Cn3cnnn3)cc2C1=O,3,-8
O=C(C[C@H]1C[C@@H]2c3cc(NS(=O)(=O)c4ccccc4)ccc3O[C@@H]2[C@@H](CO)O1)N1CCCCC1,11,12
CC(C)NC(=O)N(C)C[C@H]1Oc2c(NS(=O)(=O)c3ccccc3)cccc2C(=O)N([C@@H](C)CO)C[C@@H]1C,7,0
C[C@H](CO)N1C[C@H](C)[C@H](CN(C)S(=O)(=O)c2cn(C)cn2)Oc2ncc(C3=CCCCC3)cc2C1=O,9,2
COC(=O)C[C@@H]1CC[C@@H]2[C@@H](COc3ccc(NC(=O)Nc4cccc(F)c4)cc3C(=O)N2C)O1,-7,-5
C[C@@H]1CN([C@H](C)CO)C(=O)c2cccc(NS(=O)(=O)c3ccccc3)c2O[C@@H]1CN(C)Cc1ccc(Cl)c(Cl)c1,-16,-8
Cc1ccc(S(=O)(=O)N(C)C[C@H]2Oc3ccc(NS(=O)(=O)c4ccccc4)cc3C(=O)N([C@H](C)CO)C[C@H]2C)cc1,-30,-31
CN(C)CC#Cc1ccc([C@H]2[C@H](CO)N3CCCCN(C(=O)C4CCCC4)C[C@@H]23)cc1,7,-6
COc1cccc(C#Cc2ccc3c(c2)O[C@@H](CN(C)S(=O)(=O)c2ccccc2F)[C@H](C)CN([C@@H](C)CO)S3(=O)=O)c1,-2,3
O=C(CN1CCOCC1)NCC[C@@H]1CC[C@H](NC(=O)Cc2ccccn2)[C@H](CO)O1,5,6
C[C@@H]1CN([C@@H](C)CO)C(=O)c2cccc(NS(=O)(=O)c3cn(C)cn3)c2O[C@@H]1CN(C)S(C)(=O)=O,10,8
Cc1ccc(S(=O)(=O)N(C)C[C@H]2OCCCC[C@@H](C)Oc3ccc(NC(=O)Nc4c(C)noc4C)cc3C(=O)N([C@H](C)CO)C[C@@H]2C)cc1,26,16
C[C@@H]1CCCCO[C@@H](CN(C)C)[C@H](C)CN([C@H](C)CO)C(=O)c2cc(NS(=O)(=O)c3cccs3)ccc2O1,23,10
COc1ccc2c3c([nH]c2c1)[C@H](CO)N(C(=O)C1CCC1)CC31CCN(Cc2cccc(F)c2)CC1,?,.
COc1ccc(NC(=O)Nc2ccc3c(c2)CC(=O)N([C@H](C)CO)C[C@@H](C)[C@@H](CN(C)S(=O)(=O)c2ccc(OC)cc2)O3)cc1,-1,0
COc1ccc(C(=O)N2C[C@@H]3[C@H](c4ccccc42)[C@H](CO)N3C(=O)c2ccc(F)cc2)cc1,21,13
O=C(Nc1ccc(F)cc1)N1CCCCN2[C@H](C1)[C@@H](c1ccc(-c3cccc(F)c3)cc1)[C@@H]2CO,?,.
CCNC(=O)C[C@H]1CC[C@H]2[C@@H](COC[C@H](O)CN2C(=O)C2CCOCC2)O1,5,3
C[C@@H]1CN([C@H](C)CO)S(=O)(=O)c2ccc(C#Cc3ccccc3)cc2O[C@H]1CN(C)S(=O)(=O)c1cn(C)cn1,?,.
COc1ccc(S(=O)(=O)N[C@H]2CC[C@@H](CC(=O)N3CCC(Cc4ccccc4)CC3)O[C@H]2CO)cc1,-29,-15
O=C(N[C@@H]1CC[C@H](CCn2cc(C3(O)CCCC3)nn2)O[C@@H]1CO)C1CCCCC1,9,7

# Among those listed so far, 2 contain a Cl atom:
SMILES,Vaccinia stage,Vaccinia stage Venus
Cc1noc(C)c1S(=O)(=O)Nc1ccc2c(c1)CC(=O)N([C@@H](C)CO)C[C@H](C)[C@@H](CN(C)Cc1ccc(Cl)c(Cl)c1)O2,-28,-23
C[C@@H]1CN([C@H](C)CO)C(=O)c2cccc(NS(=O)(=O)c3ccccc3)c2O[C@@H]1CN(C)Cc1ccc(Cl)c(Cl)c1,-16,-8

# The results go on.
SMILES,Vaccinia stage,Vaccinia stage Venus
CNC[C@@H]1Oc2ccc(NC(=O)Nc3ccc(OC)cc3)cc2CC(=O)N([C@H](C)CO)C[C@@H]1C,13,8
CC(=O)N(C)C[C@H]1Oc2ncc(C3=CCCC3)cc2C(=O)N([C@H](C)CO)C[C@H]1C,11,5
C[C@@H]1CCCCO[C@H](CN(C)Cc2ccc(C(F)(F)F)cc2)[C@@H](C)CN([C@@H](C)CO)C(=O)c2cc(NS(=O)(=O)c3cn(C)cn3)ccc2O1,?,.
COc1ccc(CN(C)C[C@H]2Oc3ccc(NS(=O)(=O)c4c(C)noc4C)cc3C(=O)N([C@@H](C)CO)C[C@@H]2C)cc1,-2,-14
CCCNC(=O)N1CCC2(CC1)CN(C(=O)COC)[C@@H](CO)c1[nH]c3cc(OC)ccc3c12,15,6
Cc1ccc(S(=O)(=O)N[C@H]2CC[C@@H](CCn3cc(C(C)C)nn3)O[C@@H]2CO)cc1,?,.
CCNC(=O)C[C@@H]1CC[C@@H]2[C@H](COC[C@@H](O)CN2C(=O)Nc2ccc3c(c2)OCO3)O1,8,1
CCC(=O)Nc1ccc2c(c1)OC[C@@H](C)N(Cc1ccccc1C(=O)O)C[C@H](C)[C@@H](OC)CN(C)C2=O,5,10
C[C@@H]1CN([C@H](C)CO)C(=O)Cc2cc(NC(=O)Nc3cccc4ccccc34)ccc2O[C@@H]1CN(C)C(=O)Nc1ccc(F)cc1,-2,-1
CO[C@@H]1CN(C)C(=O)c2cc(NC(=O)C3CC3)ccc2OC[C@@H](C)N(Cc2cccc(F)c2)C[C@H]1C,5,8
O=C(NC1CCCCC1)N1CC(=O)N2[C@@H](CO)[C@H](c3ccc(-c4cccc(F)c4)cc3)[C@@H]2C1,6,-19
C[C@H](CO)N1C[C@H](C)[C@@H](CN(C)Cc2ccc(C(=O)Nc3ccccc3N)cc2)Oc2ccc(NC(=O)Cc3cn(C)c4ccccc34)cc2CC1=O,-16,-14
COCC(=O)Nc1ccc2c(c1)[C@H]1C[C@H](CC(=O)NCc3ccccc3OC)O[C@H](CO)[C@H]1O2,3,3
O=S(=O)(N[C@H]1CC[C@H](CCn2cc(-c3cccc(F)c3)nn2)O[C@@H]1CO)c1ccc(Cl)cc1,?,.
CO[C@@H]1CN(C)C(=O)c2ccc(NC(=O)NC(C)C)cc2OC[C@H](C)N(Cc2ccccn2)C[C@H]1C,2,3
COc1cccc(C#Cc2ccc3c(c2)O[C@@H](CN(C)C(=O)CN2CCOCC2)[C@H](C)CN([C@@H](C)CO)S3(=O)=O)c1,-17,-8
O=C(C[C@@H]1CC[C@@H]2[C@H](COC[C@H](O)CN2S(=O)(=O)c2cccc(Cl)c2)O1)NCc1ccc2c(c1)OCO2,?,.
Cc1noc(C)c1NC(=O)N(C)C[C@H]1Oc2ccc(NC(=O)CCCCCC(=O)Nc3ccccc3N)cc2C(=O)N([C@@H](C)CO)C[C@@H]1C,37,17
Cc1ccc(-c2c(C#N)c(N)n(-c3ccccc3C)c(=O)c2C#N)cc1,-5,-8
C[C@H](CO)N1C[C@H](C)[C@H](CN(C)CC2CC2)Oc2ccc(NC(=O)Nc3ccc4c(c3)OCO4)cc2CC1=O,8,8
CCCNC(=O)Nc1ccc2c(c1)OC[C@H](C)N(C(=O)C1CCCCC1)C[C@H](C)[C@@H](OC)CN(C)C2=O,13,7
C[C@@H]1CCCCO[C@H](CN(C)C)[C@H](C)CN([C@@H](C)CO)C(=O)c2cc(NC(=O)Nc3ccc(F)cc3)ccc2O1,-15,-4
COc1ccc(NC(=O)Nc2cccc3c2O[C@H](CN(C)Cc2ccc(C(=O)Nc4ccccc4N)cc2)[C@@H](C)CN([C@H](C)CO)C3=O)cc1,9,2
C[C@H](CO)N1C[C@H](C)[C@@H](CN(C)C(=O)Nc2cccc3ccccc23)Oc2c(NC(=O)c3nc4ccccc4s3)cccc2C1=O,-32,-22
CN1C(=O)c2cc(NC(=O)c3ccc(F)c(F)c3)ccc2OC[C@H]2O[C@H](CC(=O)N3CCCCC3)CC[C@@H]21,-6,-6
COCC(=O)Nc1ccc2c(c1)[C@@H]1C[C@H](CC(=O)N[C@@H](C)c3ccccc3)O[C@H](CO)[C@@H]1O2,-7,1
C[C@H](CO)N1C[C@H](C)[C@H](CN(C)Cc2ccc(C(=O)O)cc2)Oc2ccc(NC(=O)Cc3ccccc3)cc2CC1=O,11,21
COc1ccc(CN2C[C@H](O)COC[C@@H]3O[C@H](CC(=O)NCc4ccncn4)CC[C@H]32)cc1,6,20
Cc1noc(C)c1NC(=O)N(C)C[C@@H]1Oc2ccc(NC(=O)Cc3ccccc3)cc2CC(=O)N([C@H](C)CO)C[C@H]1C,9,4
COc1ccc(NC(=O)N(C)C[C@@H]2Oc3ncc(-c4cccnc4)cc3C(=O)N([C@@H](C)CO)C[C@H]2C)cc1,8,29

# One compound at a time, as listed above. Order of values: Vaccinia stage	Vaccinia stage Venus
# Shown for `COc1ccc(NC(=O)N(C)C[C@@H]2Oc3ncc(-c4cccnc4)cc3C(=O)N([C@@H](C)CO)C[C@H]2C)cc1` : 8	29
# Shown for `CN1C(=O)c2cc(NC(=O)c3ccc(F)c(F)c3)ccc2OC[C@H]2O[C@H](CC(=O)N3CCCCC3)CC[C@@H]21` : -6	-6

# Screening results deposited in PubChem by Broad Institute.
